# Screening results (PubChem)
# A488 autofl: A488 region autofluorescence | compound autofluorescence, A488 spectral region, dye equivalency; hits give high values | max dye equivalency, M | 59,000 tested, 0.1% active; active = above 10 nM dye equivalent; inconclusive = 1 to 10 nM; inactive = 1 nM or less; about half of its hits are not listed in these tables;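 note: highest value over a series up to 38 µM; compound alone in buffer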
#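 Read-out: relative fluorescence at 480/540 nm, expressed as Alexa 488 dye-equivalent concentration from a six-point A488 standard included per plate. Conditions: 100 mM Tris, pH 8.0; 15 min incubation, room temperature.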
# Resorufin autofl: resorufin region autofluorescence. AID 588. Compound fluorescence, resorufin region 547/598 nm, buffer; hits give high values. max dye-equivalent concentration, M. 59,000 tested, 0.04% active; active = above 10 nM dye equivalent; inconclusive = 1 to 10 nM; inactive = 1 nM or less; a few of its hits are not listed in these tables; note: highest value over a series up to 38 µM
#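 Intrinsic fluorescence profiled in the resorufin window (ex 547 nm, em 598 nm) after 15 min at room temperature in pH 8.0 Tris buffer (100 mM); responses normalized against a six-point resorufin standard series as dye-equivalent concentration.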
# A647 autofl: compound fluoresces in the A647 spectral region. 59,000 tested, under 10 active. max dye-equivalent concentration, M. AID 592. Compound fluorescence, A647 channel (570/671 nm), Tris buffer; active means above 1 µM dye equivalent; inconclusive means 0.1 to 1 µM; inactive means 0.1 µM or less;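 note: values scaled relative to a standard on each plate; highest value over a series up to 38 µM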
#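 Tris 100 mM pH 8.0; cpd + A647 stds pin-transferred; 15 min RT; CCD imager, ex 570/em 671. Output = A647-equivalent conc. per cpd conc.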
# TSHR agonist: TSH receptor (human) agonism | P16473 | HEK293-CNG-TSHR cells (CNG channel as cAMP sensor), membrane potential dye, cAMP | Potency, µM (highest dose often 57.1 µM), for inactives: at the highest dose activation, most hits filed as activators | 73,000 tested, 0.48% active | AID 926; active = well fitted activation curve of enough size with the parental cells flat; inconclusive = any curve in the parental cells; inactive = parental cells flat and receptor cells flat or falling; note: potency is the fitted concentration of half-maximal effect; % of control where 0% means no effect; weak receptor curves with flat parental cells got no call and are not listed
# Target sequence (P16473 whole entry, looked up): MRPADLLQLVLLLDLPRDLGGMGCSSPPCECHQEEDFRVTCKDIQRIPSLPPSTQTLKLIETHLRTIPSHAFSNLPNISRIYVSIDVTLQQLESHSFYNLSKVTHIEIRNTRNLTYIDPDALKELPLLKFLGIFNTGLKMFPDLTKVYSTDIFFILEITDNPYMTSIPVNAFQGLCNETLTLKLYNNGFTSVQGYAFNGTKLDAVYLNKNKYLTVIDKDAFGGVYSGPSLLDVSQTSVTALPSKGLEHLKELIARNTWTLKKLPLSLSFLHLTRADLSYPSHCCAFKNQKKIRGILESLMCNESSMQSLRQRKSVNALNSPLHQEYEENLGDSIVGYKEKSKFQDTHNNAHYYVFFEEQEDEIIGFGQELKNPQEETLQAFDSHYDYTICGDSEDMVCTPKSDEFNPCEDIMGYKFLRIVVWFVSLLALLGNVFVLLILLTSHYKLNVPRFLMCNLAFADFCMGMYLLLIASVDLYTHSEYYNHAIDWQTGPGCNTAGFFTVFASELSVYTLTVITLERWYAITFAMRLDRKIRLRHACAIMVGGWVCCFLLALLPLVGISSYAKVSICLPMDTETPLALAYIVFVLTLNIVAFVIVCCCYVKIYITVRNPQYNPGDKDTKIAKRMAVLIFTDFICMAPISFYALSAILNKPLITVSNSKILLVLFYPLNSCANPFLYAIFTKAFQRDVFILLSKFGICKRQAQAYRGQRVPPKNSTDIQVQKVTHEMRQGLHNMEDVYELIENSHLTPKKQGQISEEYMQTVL
#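 HEK 293 cells stably expressing TSHR and a cAMP-gated CNG channel; parental CNG-only cells as counterscreen. Cells preloaded 60 min with membrane potential dye plus 100 uM RO 20-1724, then compound 30 min; fluorescence read at 590 nm.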
# AID923: qHTS Assay for Allosteric/Competitive Inhibitors of Caspase-1: Spectroscopic Profiling in AFC Spectral Region; compound fluorescence, AFC spectral region (405/520 nm); almost no hit is shown here; Potency, µM (highest dose often 57.5 µM), without a hit: at the top dose fluorescence increase, actives largely listed as activators; 75,000 tested, 1.1% active; AID 923, 2007; active = well fitted activation curve with a large enough effect; inconclusive = small, poorly fitted or top-dose-only effect;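 note: potency is the fitted concentration of half-maximal effect; 0% is about no effect; scaled to a free AFC standard on each plate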
#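 Compound autofluorescence profiled at 405 nm ex/520 nm em during kinetic caspase 1 run (50 nM enzyme, 5 uM Ac-WEHD-AFC, HEPES pH 7.5, 10 mM DTT). Titration up to 57 uM; baseline from regression intercept, normalized to AFC standard curve.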
# The depositor's hits bear a star; i = inactive; ? = inconclusive; . = no result given; & = joins results of further samples; [ ] = another dose, or the depositor's remark. An excerpt; rates above refer to the full screens.
# Values run as follows: A488 autofl	Resorufin autofl	A647 autofl	TSHR agonist	AID923
Nc1ccc2oc(-c3cccs3)nc2c1
  i	i	1.1e-08	-4%	0.2%
CC(NC(=O)CN1C(=O)COc2ccccc21)c1ccccc1 (configuration not stated)
  i	i	1.9e-08	0%	0.5%
COc1cccc(-n2nnc3c(=O)n(Cc4ccc(Cl)cc4)cnc32)c1
  i	i	1e-09	?	-2.3%
CCOC(=O)C1CCN(S(=O)(=O)C(F)(F)c2nc3ccccc3s2)CC1
  i	i	9.7e-09	?	-1.7%
c1ccc(Cn2c(SCc3cn4cccnc4n3)nnc2-c2ccco2)cc1
  i	i	3.7e-08	13%	-0.8%
COc1c(C)cc(Br)cc1C(=O)O
  i	i	1e-09	?	3.9%
O=C(O)c1ccc2c3c(cccc13)C(=O)N(c1ccccc1O)C2=O
  .	.	.	-3%	3.6%
CN1CCC(CNC(=O)c2ccc(Cc3nc4ccccc4[nH]3)cc2)CC1
  .	.	.	9%	0.9%
CCOC(=O)Cn1cnc2c(C#N)c3n(c2c1=O)CCCCC3
  .	.	.	?	1.0%
CCOC(=O)C1CCN(C(=O)CN(Cc2ccccc2)S(C)(=O)=O)CC1
  i	i	1e-09	13%	0.1%
O=C(CN(C(=O)CCC(=O)Nc1nccs1)c1cccc(F)c1)NCC1CCCO1 (configuration not stated)
  i	i	1e-09	0%	0.8%
CN(Cc1ccccc1)C1CC(=O)N(c2ccc(C(=O)O)cc2)C1=O (configuration not stated)
  i	i	3.6e-08	4%	1.9%
CC(C)C[C@H](NC(=O)[C@@H](NC(=O)N[C@@H](Cc1ccccc1)C(=O)O)[C@H]1CCN=C(N)N1)C(=O)N[C@H](C=O)Cc1ccccc1
  i	i	6.2e-09	4%	.
CCCCOc1ccccc1C(=O)NCCCCCC(=O)O
  i	i	3.7e-09	.	.
Cc1cc(NC(=O)CN2CCCCCCC2)no1
  i	i	6e-09	20%	0.1%
COc1ccc(COC(=O)N/N=C2/C[C@@H](O)[C@@H](O)[C@@H]3[C@@H]4C(=O)N([C@@H](C)c5ccccc5)C(=O)[C@H]4CC[C@H]23)cc1
  .	.	.	-4%[11.4 µM]	2.0%[11.5 µM]
COc1ccc2c(c1)N(CC[C@H]1CCCCN1C)c1ccccc1S2
  i	i	1e-09	-4%[11.4 µM]	-2.8%[11.5 µM]
CN(C)CCCSc1nc2ccccc2[nH]1
  i	i	1e-09	7%[11.4 µM]	-1.2%[11.5 µM]
NC1=NC(=Nc2ccccc2)c2ccccc21
  i	i	1e-09	-4%	0.1%
O=C(CCCOc1ccc(Cl)cc1)N1CCCCCC1
  i	i	1e-09	24%	-0.4%
COc1nc(NCCC2=CCCCC2)nc(OC)n1
  .	.	.	16%	1.8%
O=C(O)C1C2C=CC(C2)C1C(=O)NCc1ccc2c(c1)OCO2 (configuration not stated)
  .	.	.	13%	0.7%
Fc1ccc(Cn2nnnc2C(c2cccs2)N2CCCCCC2)cc1 (configuration not stated)
  i	i	2.6e-08	?	0.9%
O=C(NC1CCS(=O)(=O)C1)c1ccc(-c2ccc(Br)cc2)o1 (configuration not stated)
  i	i	4.8e-09	9%	-1.3%
CCCn1c(SCC(=O)Nc2nccs2)nnc1-c1cccnc1
  i	i	5.2e-08	-5%	-2.3%
Cn1ccnc1SCC(=O)Nc1sccc1C#N
  i	i	1e-09	0%	1.4%
CCCn1c(=O)c(C(=O)Nc2ccncc2)c(O)c2ccccc21
  .	.	.	-3%	2.4%
CCOC(=O)C1=C[C@@]2(CC)CCCN3CCc4c(n1c1ccccc41)[C@H]32
  i	i	1.9e-08&3.1e-08	?	-2.3%
Cc1cccc(CNc2nc(-c3ccoc3)nc3ccccc23)c1
  i	i	3.1e-08	?	1.7%
COc1ccc(N2CCN(C(=O)CCCOc3cc(=O)n(C)c4ccccc34)CC2)cc1
  i	i	1.9e-08	2%[11.4 µM]	-0.7%

# Laid out differently: entries from further up.
SMILES | A488 autofl | Resorufin autofl | A647 autofl | TSHR agonist | AID923
CCCn1c(SCC(=O)Nc2nccs2)nnc1-c1cccnc1 | i | i | 5.2e-08 | -5% | -2.3%
Cn1ccnc1SCC(=O)Nc1sccc1C#N | i | i | 1e-09 | 0% | 1.4%
CCCn1c(=O)c(C(=O)Nc2ccncc2)c(O)c2ccccc21 | . | . | . | -3% | 2.4%
CCOC(=O)C1=C[C@@]2(CC)CCCN3CCc4c(n1c1ccccc41)[C@H]32 | i | i | 1.9e-08&3.1e-08 | ? | -2.3%
Cc1cccc(CNc2nc(-c3ccoc3)nc3ccccc23)c1 | i | i | 3.1e-08 | ? | 1.7%

# Additional structures follow.
# Values run as follows: A488 autofl	Resorufin autofl	A647 autofl	TSHR agonist	AID923
O=C(c1csnn1)N1CCC[C@@]2(CCN(c3cccc(-c4ccccc4)c3)C2)C1
  i	i	1.8e-08	21%	1.6%
CC(=O)Oc1ccc(N(C(C)=O)S(=O)(=O)c2cccs2)cc1
  i	i	6.4e-09	-1%	-1.1%
O=C(CN1C(=O)C2CCc3[nH]c4ccccc4c3C2C1=O)N1CCCC1 (configuration not stated)
  i	i	2e-08	3%	17%
CCC1CCCCN1S(=O)(=O)c1ccc(S(=O)(=O)N(Cc2cccs2)C2CC2)cc1 (configuration not stated)
  i	i	2.7e-09	?	-2.2%
Cc1cc(=O)n2c3c(sc2n1)C(=O)N(Cc1ccccc1)C3=O
  i	i	1e-09	-3%	-2.9%
COc1ccc(-c2nc3c(Br)c(N)c(Br)cc3o2)cc1
  i	i	9.3e-09	.	.
COc1ccccc1OCCNC(=O)c1ccc(S(=O)(=O)N(C)C)cc1
  .	.	.	12%	-1.6%
COc1ccccc1CC(=O)NCc1ccc2c(c1)OCO2
  i	i	3.6e-09	7%	0.7%
COC(C)(C)c1cc(C(C)(C)C)nc(N)n1
  .	.	.	0%[11.4 µM]	-1.5%
Clc1ccc2nc(CN3CCCCC3)cn2c1
  i	i	2.4e-08	-7%	0.5%
CN(Cc1nc(-c2cccnc2)no1)S(=O)(=O)c1ccc(Br)cc1
  i	i	1e-09	15%	-1.1%
COc1ccc(CNC(=O)c2c(O)c3ccccc3n(C)c2=O)cc1OC
  i	i	4.3e-09	?	-0.7%
CCOc1ccc2cc(S(=O)(=O)N3CCN(C)CC3)ccc2c1
  i	i	1e-09	?	-0.1%
COC(=O)c1ccccc1NC(=O)c1cc2sccc2n1C
  i	i	2.4e-08	13%	1.7%
O=C(Cn1cc(C(F)(F)F)ccc1=O)N1CCN(S(=O)(=O)c2ccc(Cl)cc2)CC1
  i	i	7.9e-09	16%	-2.1%
Cc1oc(-c2cccc(Cl)c2)nc1CN1CCC(C(=O)N2CCN(c3ccccc3F)CC2)CC1
  .	.	.	?	1.9%
CCN(CC)CCCNC(=O)C1c2ccccc2Oc2ccccc21
  i	i	2.9e-08	7%	1.9%
CN1/C(=C\C(=O)c2ccco2)c2ccccc2CC1(C)C
  i	i	2.5e-09	15%	-3.2%
O=C(NC1CC2CCC1C2)C1CCN(S(=O)(=O)c2ccc(-c3nn[nH]n3)cc2)CC1 (configuration not stated)
  i	i	1e-09	-1%	-2.4%
CC(C)CCn1nnnc1C(c1ccc(F)cc1)N1CCC(C(N)=O)CC1 (configuration not stated)
  i	i	4.1e-08	-5%	-0.3%
CC1CCN(CCCNC(=O)COc2cc(=O)n(C)c3ccccc23)CC1
  i	i	6.3e-09	8%[11.4 µM]	-0.6%
CN1CCc2cc3c(cc2[C@@H]1[C@@H]1C(=O)Oc2c1ccc1c2OCO1)OCO3
  .	.	.	14%	0.0%
Cc1c(C(=O)OCCOC(C)C)[nH]c2c1C(=O)CC(c1ccco1)C2 (configuration not stated)
  .	.	.	10%	-2.7%
Cn1c(=O)c2c(nc(SCC(=O)NCC3CCCO3)n2C)n(C)c1=O (configuration not stated)
  i	i	1.1e-08	10%	0.0%
COc1ccc(S(=O)(=O)Nc2ccc(CC#N)cc2)cc1
  i	i	2.8e-08	-3%	2.7%
CN(C)CCNS(=O)(=O)c1ccc(Cl)cc1
  i	i	1.5e-08	?	-2.8%
Cn1c(=O)c2[nH]c(CCCCc3nc4c([nH]3)c(=O)n(C)c(=S)n4C)nc2n(C)c1=S
  i	i	1e-09	-1%[11.4 µM]	0.4%[11.5 µM]
CC1CCc2[nH]nc(C(=O)O)c2C1 (configuration not stated)
  i	i	7.1e-09	17%	-1.7%
Cn1c(=O)c2c(nc(NCCCN3CCOCC3)n2Cc2ccc(Cl)cc2Cl)n(C)c1=O
  i	i	3.6e-08	-11%	1.6%
NC(=O)CSc1nc(O)cc(=O)n1-c1ccccc1
  i	i	1e-09	-24%	0.2%
CCCCOc1ccccc1/C=c1/sc2nc(-c3oc4ccccc4c3C)nn2c1=O
  i	i	2.2e-08	.	.
COc1cc(SC)ccc1C(=O)Nc1ccccc1C#N
  i	i	2.3e-08	.	-0.5%
COC(=O)CSc1nc2ccccc2o1
  i	i	1e-09	5%	-0.5%
O=C(Nc1ccc2oc(-c3ccc(F)cc3)nc2c1)c1ccccc1F
  i	i	2.8e-09	6%	1.7%
C=CCn1c(NCc2ccc(N(C)C)cc2)nc2ccccc21
  i	i	2.5e-08	-29%	-1.6%
COC(=O)c1ccc2c(=O)n(CCCCCC(=O)N3CCN(c4ccccc4)CC3)c(=O)[nH]c2c1
  i	i	1e-09	?	1.3%
COC(=O)Cn1c(=N)n(CCN2CCCCC2)c2ccccc21
  i	i	2e-08	8%	0.3%
O=C(CCOc1ccccc1)Nc1ccc(S(=O)(=O)N2CCCC2)cc1
  i	i	9e-09	2%[11.4 µM]	-0.9%
Cc1sc2nc(CN3CCOCC3)nc(NS(=O)(=O)c3ccc4c(c3)OCCO4)c2c1C
  i	i	1e-09	5%	1.3%
COc1ccc(CCNC(=O)C2CCN(S(=O)(=O)N3CCCCCC3)CC2)cc1OC
  i	i	2e-08	.	-1.7%

# One compound at a time, as listed above. Order of screens: A488 autofl | Resorufin autofl | A647 autofl | TSHR agonist | AID923
# Entry for Cc1sc2nc(CN3CCOCC3)nc(NS(=O)(=O)c3ccc4c(c3)OCCO4)c2c1C → i | i | 1e-09 | 5% | 1.3%
# Entry for O=C(CCOc1ccccc1)Nc1ccc(S(=O)(=O)N2CCCC2)cc1 → i | i | 9e-09 | 2%[11.4 µM] | -0.9%

# Later entries.
# Values run as follows: A488 autofl	Resorufin autofl	A647 autofl	TSHR agonist	AID923
O=C(CSc1nnc(-c2ccccc2)o1)Nc1ccccc1F
  .	.	.	17%	-0.1%
COc1cc(C2C(C(=O)c3sc(C)nc3C)=C(O)C(=O)N2CCN(C)C)cc(OC)c1OC (configuration not stated)
  i	i	1e-09	.	.
CC(C)OCCCn1c(=S)[nH]c2ccc(N3CCOCC3)cc2c1=O
  i	i	2.1e-08	1%	?
CC(C(=O)Nc1cccnc1)N1C(=O)C2C3C=CC(C3)C2C1=O (configuration not stated)
  i	i	7.9e-09	5%	2.7%
CC1(C(=O)NC2CCCCCCC2)CCC(=O)N1Cc1cccnc1 (configuration not stated)
  i	i	3.1e-08	-2%	-3.5%
Cc1ccc(CNC(=O)C2CCCN(S(C)(=O)=O)C2)cc1 (configuration not stated)
  i	i	5.3e-09	?	-0.2%
C[N+]1(C)C[C@@H](O)C[C@@H]1C(=O)[O-]
  i	i	5.8e-09	6%[25.6 µM]	1.2%[25.7 µM]
CCOc1ccc(NC(=O)CN2CCN(CC(=O)c3ccc(OC)c(OC)c3)CC2)cc1
  i	i	4.9e-08	0%	-2.5%
CC(C)[C@](N)(C(=O)O)c1ccccc1
  i	i	1.3e-08	3%[11.4 µM]	0.7%[11.5 µM]
CCN(CC)CCCN(C(=O)c1cccs1)c1nc(-c2ccc(OC)cc2)cs1
  i	i	9.9e-09	?	-0.5%
